Compound activity (PubChem BioAssay)
Vif A3G: inhibitors of Vif binding to APOBEC3G peptide, primary screen, biochemical, TR-FRET, GST-Vif 1-94, biotin-A3G peptide, dose response retest (AID 1117319) | TR-FRET GST-Vif / biotin-A3G peptide binding; higher % means a stronger effect; test concentration not given here; strong numbers were not always called active | inhibition, %; hits with a dose series show IC50 in µM | 0.57% of 260,000 active;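 active = above the screen mean plus three standard deviations and confirmed in dose response; inconclusive = results disagree or hit not tested in dose response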;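 also: Vif residues 1-94 fused to GST binding biotinylated APOBEC3G peptide 110-148; 0% = full assay without inhibitor and 100% = GST in place of GST-Vif; retest series ran down from 100 µM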
UCH37 inh: inhibitors of human deubiquitinating enzyme UCH37 | Q9Y5K5 | purified proteasome/UCH37, Ub-AMC cleavage fluorescence | inhibition, % (no concentration beside the values) | AID 588478 | 0.33% of 330,000 active;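 active = mean of two replicates above 20%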;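 also: 0% = compound-free wells with enzyme and 100% = wells lacking proteasome; stock transfer was 100 nL into about 20 µL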
Target sequence (Q9Y5K5 whole entry, looked up): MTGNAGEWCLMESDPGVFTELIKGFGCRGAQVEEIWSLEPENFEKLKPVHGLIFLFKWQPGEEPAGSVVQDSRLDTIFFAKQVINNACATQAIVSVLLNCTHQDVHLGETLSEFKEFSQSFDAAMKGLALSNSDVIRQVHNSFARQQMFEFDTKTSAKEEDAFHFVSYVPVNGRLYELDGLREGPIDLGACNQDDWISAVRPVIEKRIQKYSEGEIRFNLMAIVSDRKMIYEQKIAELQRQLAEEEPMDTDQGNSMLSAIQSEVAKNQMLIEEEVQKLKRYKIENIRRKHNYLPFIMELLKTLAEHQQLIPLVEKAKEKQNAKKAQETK
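Material: Human UCH37 enzyme supplied as purified proteasome complex | Schedule: 30 min compound-proteasome preincubation then 25 min substrate reaction, room temperature | Detection: AMC fluorescence from Ub-AMC cleavage, excitation 355 nm, emission 460 nm | Benchmarks: Wells without proteasome as full block, compound-free enzyme plus substrate as uninhibited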
HNF4A DNA FP: change in binding of human HNF4 alpha to DNA | P41235 | HNF4a-FITC DNA binding, fluorescence polarization, 1 h | activity change, % at 10 µM | 0.3% of 360,000 active | AID 1224865; in the data active = activity change above about 30%, passing the limit was not always enough;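 also: controls were the assay level and a saturating level of protein; the project sought stronger binding though the title names inhibitors; some compounds called inactive have numbers as strong as hits; positive values seem to mean higher polarization but the record does not say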
Target sequence (P41235 whole entry, looked up): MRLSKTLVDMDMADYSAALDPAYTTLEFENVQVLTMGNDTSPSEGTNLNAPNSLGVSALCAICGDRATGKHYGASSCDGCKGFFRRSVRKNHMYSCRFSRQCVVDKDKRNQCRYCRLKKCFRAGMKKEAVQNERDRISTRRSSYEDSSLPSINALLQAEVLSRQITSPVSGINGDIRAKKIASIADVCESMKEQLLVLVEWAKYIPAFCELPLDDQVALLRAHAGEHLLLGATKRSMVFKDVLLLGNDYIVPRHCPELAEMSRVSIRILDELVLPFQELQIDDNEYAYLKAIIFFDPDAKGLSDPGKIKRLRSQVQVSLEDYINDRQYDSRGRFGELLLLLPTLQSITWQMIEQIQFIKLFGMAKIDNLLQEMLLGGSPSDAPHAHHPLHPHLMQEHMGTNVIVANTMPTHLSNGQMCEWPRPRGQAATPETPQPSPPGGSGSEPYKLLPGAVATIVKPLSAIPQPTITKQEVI
AF4-AF9 inh: blocks AF4 peptide binding to human AF9; 0.47% of 350,000 active; inhibition, % at 10 µM; AlphaScreen, biotin-AF4 peptide binding to FLAG-AF9; AID 651704; P42568;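 active = every replicate reaching a set inhibition limit, whatever the replicate mean, cut at about 25% in these data; inconclusive = mean inhibition reaches that limit but some replicates miss it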;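 also: 0% = plate neutral control median and 100% = total signal loss; the record names both 10 and 1 µM as test concentration; the first replicate is given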
FGF22 binding: FGF22 (human) thermal shift binding; 1.5% of 340,000 active; AID 651658; Q9HCT0; recombinant FGF22 thermal shift, SYPRO orange fluorescence; percent of sucrose octasulfate shift, DMSO zero; calls only at 9.99 µM;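 active = melting point raised past a set limit in the mean and every replicate; inconclusive = no clear call; three in four hits are not shown here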
Target sequence (Q9HCT0 whole entry, looked up): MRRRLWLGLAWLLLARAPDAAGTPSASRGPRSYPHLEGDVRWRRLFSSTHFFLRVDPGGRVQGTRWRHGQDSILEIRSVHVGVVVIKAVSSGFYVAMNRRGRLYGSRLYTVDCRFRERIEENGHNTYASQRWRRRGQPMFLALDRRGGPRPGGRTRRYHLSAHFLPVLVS
RanGTP-Impb inh: disruptors of Ran-importin-beta complex formation – biochemical, FRET, CFP-Ran, YFP-importin-beta, homogeneous, primary screen; cell-free CFP-Ran/YFP-importin-beta FRET ratio; inhibition, % (no concentration beside the values); 1.1% of 300,000 active; AID 2216;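 active = most replicates above 15%; inconclusive = exactly half above 15%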;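 also: 0% = DMSO wells and 100% = Ran loaded with GDP instead of GTP; wells of about 40 µL received 100 nL stock; the first replicate is given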
E coli growth: blocks Escherichia coli growth; OD600, 23 h; stronger effect = lower value; OD600 absorbance (no concentration beside the values); 0.21% of 330,000 active; AID 1053175;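 active = OD600 absorbance below the run mean of sample wells minus 3.6 SD, in any replicate, cut at about 0.56 in these data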;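 also: stock transfer was 300 nL into about 60 µL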
Starred values were filed as active, the others as inactive; & = joins results of further samples.

What do the screens show for `COCCN1C(=O)c2cc(C(=O)Nc3ccc(OC)c(OC)c3)ccc2C1Nc1ccc(OC)c(OC)c1` (stereo unspecified)?
Vif A3G: -0.2%; UCH37 inh: 3.0; HNF4A DNA FP: -0.9; AF4-AF9 inh: -0.6; FGF22 binding: inactive; RanGTP-Impb inh: 3.5; E coli growth: 0.629

What do the screens show for `CCOC(=O)N1CCC(N2C(=O)c3ccccc3C2Nc2cc(C(=O)OC)cc(C(=O)OC)c2)CC1` (stereo unspecified)?
Vif A3G: 6.1%; UCH37 inh: -25.2; HNF4A DNA FP: 0.3; AF4-AF9 inh: 1.5; FGF22 binding: inactive; RanGTP-Impb inh: 1.2; E coli growth: 0.77

What do the screens show for `Cc1ccc(S(=O)(=O)N2CCN(CC(=O)N/N=C\C(Cl)=C\c3ccccc3)CC2)cc1`?
Vif A3G: -6.5%; HNF4A DNA FP: 0.4; RanGTP-Impb inh: 2.9

What do the screens show for `COc1ccc(F)c(CN2CCC(N3CCC(C(=O)N4CCOCC4)CC3)CC2)c1`?
Vif A3G: 4.6%; UCH37 inh: 0.8; HNF4A DNA FP: -0.7; AF4-AF9 inh: 3.5; RanGTP-Impb inh: 1.6; E coli growth: 0.681

Results for O=C(OCC(=O)N1CCc2ccccc21)c1cccc(S(=O)(=O)N2CCCc3ccccc32)c1 ?
UCH37 inh: 5.9; HNF4A DNA FP: 0.4; RanGTP-Impb inh: -0.6; E coli growth: 0.783

How did CN(N)c1ccc2c(C(F)(F)F)cc(C(F)(F)F)nc2n1 do in these assays?
Vif A3G: 15.9%; UCH37 inh: 3.6; HNF4A DNA FP: 5.4; AF4-AF9 inh: -0.6; FGF22 binding: inactive; RanGTP-Impb inh: 4.2; E coli growth: 0.7

How did N[C@@H](Cc1ccccc1)C(=O)N1CCC(C(=O)N[C@@H](CCC(=O)O)C(=O)O)CC1 do in these assays?
Vif A3G: 6.1%; UCH37 inh: 1.5; HNF4A DNA FP: 2.6; AF4-AF9 inh: -1.4; FGF22 binding: inactive; RanGTP-Impb inh: -1.2; E coli growth: 0.634

What do the screens show for `Cc1ccccc1NC(=O)C1C2CCC(O2)C1C(=O)O` (stereo unspecified)?
Vif A3G: -8.7%; UCH37 inh: 3.6; HNF4A DNA FP: 3.2; RanGTP-Impb inh: 3.2; E coli growth: 0.701

How did Cc1ccc(S(=O)(=O)c2c(COC(=O)c3ccccc3Cl)c(-c3ccccc3)nn2C)cc1 do in these assays?
Vif A3G: -1.1%; UCH37 inh: 0.6; HNF4A DNA FP: 0.8; RanGTP-Impb inh: 4.2; E coli growth: 0.734

What do the screens show for `Nc1nnc(SCC(=O)NCc2ccc3c(c2)OCO3)s1`?
Vif A3G: inconclusive; UCH37 inh: 2.1; HNF4A DNA FP: 0.3; RanGTP-Impb inh: -0.8; E coli growth: 0.782

What do the screens show for `Cc1c(Cl)cccc1NC(=O)CCNC(=O)N1CC(=O)Nc2ccccc21`?
UCH37 inh: 3.5; HNF4A DNA FP: 1.0; AF4-AF9 inh: -5.9; FGF22 binding: inactive; RanGTP-Impb inh: 3.8; E coli growth: 0.71

What do the screens show for `COc1ccc(CNC(=O)C(=O)NCCC2CCCCN2S(=O)(=O)c2cccs2)cc1` (stereo unspecified)?
UCH37 inh: 1.4; HNF4A DNA FP: 1.3; AF4-AF9 inh: -0.1; FGF22 binding: inactive; RanGTP-Impb inh: inconclusive; E coli growth: 0.685

Results for Cc1ccc(CNC(=O)[C@H](C)NC(=O)C2CCN(C(=O)[C@@H]3CCCN3C(=O)OC(C)(C)C)CC2)cc1 ?
UCH37 inh: 2.8; HNF4A DNA FP: -1.4; AF4-AF9 inh: -0.9; FGF22 binding: inactive; RanGTP-Impb inh: 2.0; E coli growth: 0.757

Results for Cc1noc(C)c1S(=O)(=O)N1CCC(C(=O)NCCC2=CCCCC2)CC1 ?
Vif A3G: 24.1%; UCH37 inh: 1.1; HNF4A DNA FP: 2.5; RanGTP-Impb inh: -6.1; E coli growth: 0.659

What do the screens show for `CC(OC(=O)Cn1cnc2c1c(=O)n(C)c(=O)n2C)C(=O)Nc1ccc(Cl)cc1` (stereo unspecified)?
Vif A3G: 0.5%; UCH37 inh: 0.4; HNF4A DNA FP: -0.5; AF4-AF9 inh: -15.2; FGF22 binding: inactive; RanGTP-Impb inh: 3.2; E coli growth: 0.598

Overlap with the part before: three entries, then new ones.
Results for Cc1ccc(CNC(=O)[C@H](C)NC(=O)C2CCN(C(=O)[C@@H]3CCCN3C(=O)OC(C)(C)C)CC2)cc1 ?
UCH37 inh: 2.8; HNF4A DNA FP: -1.4; AF4-AF9 inh: -0.9; FGF22 binding: inactive; RanGTP-Impb inh: 2.0; E coli growth: 0.757

Results for Cc1noc(C)c1S(=O)(=O)N1CCC(C(=O)NCCC2=CCCCC2)CC1 ?
Vif A3G: 24.1%; UCH37 inh: 1.1; HNF4A DNA FP: 2.5; RanGTP-Impb inh: -6.1; E coli growth: 0.659

What do the screens show for `CC(OC(=O)Cn1cnc2c1c(=O)n(C)c(=O)n2C)C(=O)Nc1ccc(Cl)cc1` (stereo unspecified)?
Vif A3G: 0.5%; UCH37 inh: 0.4; HNF4A DNA FP: -0.5; AF4-AF9 inh: -15.2; FGF22 binding: inactive; RanGTP-Impb inh: 3.2; E coli growth: 0.598

What do the screens show for `COc1cc(NC(=O)CSc2nnc(NC(C)C)s2)cc(OC)c1OC`?
UCH37 inh: 2.9; HNF4A DNA FP: 2.3; AF4-AF9 inh: 1.4; FGF22 binding: inactive; RanGTP-Impb inh: 6.7; E coli growth: 0.665

Results for CCOc1ccccc1-c1nc(-c2cccc(Br)c2)no1 ?
Vif A3G: -21.3%; UCH37 inh: 0.8; HNF4A DNA FP: -0.4; AF4-AF9 inh: 3.9; FGF22 binding: inactive; RanGTP-Impb inh: -3.9; E coli growth: 0.732

Results for Cc1cc(C)c(-c2c(O)c3cccc4c3n(c2=O)CCC4)c(C)c1 ?
Vif A3G: -5.8%; UCH37 inh: -1.9; HNF4A DNA FP: -0.6; RanGTP-Impb inh: 0.8; E coli growth: 0.692

How did CCOC(=O)C1CCN(Cc2cc(=O)oc3c(C)c(C)ccc23)CC1 do in these assays?
UCH37 inh: 2.2; HNF4A DNA FP: 14.2; AF4-AF9 inh: -5.0; FGF22 binding: inactive; RanGTP-Impb inh: inconclusive; E coli growth: 0.659

Results for COC(=O)c1c(NC(NC(=O)C(C)C)C(Cl)(Cl)Cl)sc2c1CCC2 (stereo unspecified) ?
Vif A3G: 2.0%; UCH37 inh: 2.9; HNF4A DNA FP: 1.1; AF4-AF9 inh: -14.2; FGF22 binding: inactive; RanGTP-Impb inh: inconclusive; E coli growth: 0.706

Results for N#CCCN(CCC#N)c1nncs1 ?
Vif A3G: 1.2%; UCH37 inh: 6.1; HNF4A DNA FP: 1.4; RanGTP-Impb inh: 2.5; E coli growth: 0.729

How did COc1ccc2c(c1)C=C(CN1CCN(C3CCCC3)C(CCO)C1)CO2 (stereo unspecified) do in these assays?
Vif A3G: 28.4%; UCH37 inh: 1.9; HNF4A DNA FP: -1.3; AF4-AF9 inh: 4.7; FGF22 binding: inactive; RanGTP-Impb inh: 5.2; E coli growth: 0.666

What do the screens show for `CSCC[C@H](NC(=O)C(C)(C)Oc1ccc(Cl)cc1)c1nc2ccccc2[nH]1`?
UCH37 inh: 1.8; HNF4A DNA FP: 2.9; AF4-AF9 inh: -0.2; FGF22 binding: inactive; RanGTP-Impb inh: 3.2; E coli growth: 0.729

Results for CCN(CC)S(=O)(=O)c1ccc(N(C)Cc2cccc(OC)c2OC)nc1 ?
Vif A3G: 28.1%; UCH37 inh: 3.9; HNF4A DNA FP: 1.5; AF4-AF9 inh: -2.3; FGF22 binding: inactive; RanGTP-Impb inh: 2.7; E coli growth: 0.734

Results for COc1ccc2[nH]c(CN3CCN(CC=C(C)C)C(CCO)C3)c(C)c2c1 (stereo unspecified) ?
UCH37 inh: -3.1; HNF4A DNA FP: -0.6; AF4-AF9 inh: 5.7; FGF22 binding: inactive; RanGTP-Impb inh: 6.5; E coli growth: 0.675

What do the screens show for `Clc1cccc(CNc2nc(-c3cccnc3)nc3ccccc23)c1`?
UCH37 inh: -22.5; HNF4A DNA FP: 4.9; AF4-AF9 inh: -3.2; FGF22 binding: inactive; RanGTP-Impb inh: -1.0; E coli growth: 0.698

How did CCOC(=O)CSc1nc(C)c(C(=O)OCC)s1 do in these assays?
Vif A3G: 2.4%; UCH37 inh: -2.7; HNF4A DNA FP: 3.0; RanGTP-Impb inh: 2.6; E coli growth: 0.767

How did Cc1noc(C)c1NC(=O)Nc1cccc2c1O[C@H](CN(C)S(=O)(=O)c1cn(C)cn1)[C@@H](C)CN([C@H](C)CO)C2=O do in these assays?
HNF4A DNA FP: -7.7; AF4-AF9 inh: -1.0&-1.2; FGF22 binding: inactive

What do the screens show for `CCC/C=C(\CCC)C(NC(=O)OCC(C)C)c1ccc(C(=O)OC)cc1` (stereo unspecified)?
Vif A3G: 17.7%; UCH37 inh: 3.9; HNF4A DNA FP: -4.8; FGF22 binding: inactive; RanGTP-Impb inh: 0.6

Results for O=C1CCN(Cc2ccccc2)CCN1[C@H](CSc1ccccc1)c1ccccc1 ?
UCH37 inh: -1.6; HNF4A DNA FP: 2.2; FGF22 binding: inactive; RanGTP-Impb inh: 5.0

What do the screens show for `COc1ccc(Cl)cc1N(CC(=O)N1CCCC1)S(C)(=O)=O`?
Vif A3G: -4.5%; UCH37 inh: 3.4; HNF4A DNA FP: -2.3; AF4-AF9 inh: 2.6; FGF22 binding: inactive; RanGTP-Impb inh: 0.2; E coli growth: 0.709

What do the screens show for `O=C(c1nc2nc(-c3ccccc3)cc(C(F)(F)F)n2n1)N1CCCCC1`?
Vif A3G: 2.4%; UCH37 inh: -13.3; HNF4A DNA FP: -0.7; E coli growth: 0.713

How did Cc1ccc(S(=O)(=O)N2CCOCC2)cc1NC(=O)COC(=O)c1ccc2c(c1)OCO2 do in these assays?
Vif A3G: -4.5%; UCH37 inh: 2.1; HNF4A DNA FP: 10.4; AF4-AF9 inh: 0.6; FGF22 binding: inactive; RanGTP-Impb inh: 2.6; E coli growth: 0.705

How did Cc1nccn1-c1cc(C(C)(C)C)nc2c(-c3ccccc3)cnn12 do in these assays?
Vif A3G: -1.6%; UCH37 inh: 0.9; HNF4A DNA FP: 0.9; AF4-AF9 inh: 0.6; FGF22 binding: inactive; RanGTP-Impb inh: -4.7; E coli growth: 0.751

What do the screens show for `O=C(NNC(=O)[C@H]1CC=CC[C@H]1C(=O)O)c1ccc(Cl)cc1Cl`?
Vif A3G: -12.1%; UCH37 inh: 2.9; HNF4A DNA FP: 0.6; AF4-AF9 inh: -0.8; RanGTP-Impb inh: 0.2; E coli growth: 0.708

What do the screens show for `COc1ccc(NC(=O)c2c(C)nn(Cc3ccccc3)c2C)cc1S(=O)(=O)N(C)C`?
Vif A3G: 5.1%; UCH37 inh: 3.4; HNF4A DNA FP: -3.0; AF4-AF9 inh: 1.3; FGF22 binding: inactive; RanGTP-Impb inh: 4.2; E coli growth: 0.654

Results for O=C(NCCN1CCOCC1)c1cccc2c1C(=O)c1ccc(N3CCCC3)cc1S2(=O)=O ?
UCH37 inh: 3.6; HNF4A DNA FP: 68.4; AF4-AF9 inh: 7.0; FGF22 binding: inactive; E coli growth: 0.683

Results for CC(=O)c1ccc(NC(=O)C2CCCN2S(=O)(=O)c2cccs2)cc1 (stereo unspecified) ?
Vif A3G: -7.5%; UCH37 inh: 3.2; HNF4A DNA FP: 0.8; AF4-AF9 inh: -1.5; RanGTP-Impb inh: 1.6; E coli growth: 0.692

Only part of the results is shown, so the mix of outcomes need not match the whole.
